Six1-Eya2 blk: Six1/Eya2 interaction inhibition. Q15475+O00167. AlphaScreen GST-Six1/His-Eya2 binding, biochemical; stronger effect = lower value; control for the full effect not named in the record. activity change, % (test concentration not listed). hit rate 0.56% among 360,000. AID 651725; in the data active = activity change below about -65%; inconclusive = about -30% to -65%; inactive = above about -30%; further: on the % scale 0 is the no-effect control and ±100 the full control effect; compound concentration not given in the record
Target sequence (O00167 whole entry, looked up): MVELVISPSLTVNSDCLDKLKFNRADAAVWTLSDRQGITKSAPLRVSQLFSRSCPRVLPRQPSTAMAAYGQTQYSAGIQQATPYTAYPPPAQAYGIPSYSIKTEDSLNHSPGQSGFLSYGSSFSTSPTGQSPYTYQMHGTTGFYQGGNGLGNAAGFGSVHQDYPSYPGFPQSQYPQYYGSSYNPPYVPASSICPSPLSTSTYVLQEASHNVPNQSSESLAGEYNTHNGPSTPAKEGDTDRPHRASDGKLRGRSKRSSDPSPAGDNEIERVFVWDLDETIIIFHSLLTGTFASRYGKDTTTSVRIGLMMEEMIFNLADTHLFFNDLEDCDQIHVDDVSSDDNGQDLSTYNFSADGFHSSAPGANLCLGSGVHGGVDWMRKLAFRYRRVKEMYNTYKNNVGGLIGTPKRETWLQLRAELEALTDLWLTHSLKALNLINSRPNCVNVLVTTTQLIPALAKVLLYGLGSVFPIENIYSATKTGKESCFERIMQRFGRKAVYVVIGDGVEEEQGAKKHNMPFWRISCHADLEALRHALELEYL
Target sequence (Q15475 whole entry, looked up): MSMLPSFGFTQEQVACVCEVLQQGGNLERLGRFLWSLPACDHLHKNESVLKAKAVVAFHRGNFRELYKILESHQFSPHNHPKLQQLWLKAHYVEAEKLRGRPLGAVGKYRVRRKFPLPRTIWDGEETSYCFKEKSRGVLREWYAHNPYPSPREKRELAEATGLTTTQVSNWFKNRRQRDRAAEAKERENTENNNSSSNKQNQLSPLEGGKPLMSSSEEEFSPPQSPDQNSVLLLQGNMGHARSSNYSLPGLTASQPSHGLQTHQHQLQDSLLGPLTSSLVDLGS
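Homogeneous AlphaScreen proximity assay pairing GST-Six1 with His-tagged Eya2 (added as 5X mix: 250 nM and 500 nM) in 50 mM Tris pH 8.0, 300 mM NaCl, 1 mM TCEP. Glutathione donor and nickel acceptor beads; 1 h, 37 °C, dark.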
PINK1 modulator: changes PINK1 expression | PINK1 immunofluorescence, high-content cytometry, 24 h | Potency, µM (highest dose often 76.6 µM), inactives show at the top dose activation (PINK1 increase), most hits filed as activators | hit rate 0.2% among 410,000 | AID 624263; active = well fitted activation curve with a large enough effect; inconclusive = small, poorly fitted or top-dose-only effect; inactive = flat fitted curve, though single readings scatter; cell line not stated here;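 further: potency means the concentration at half of the fitted maximal effect; % of control where 0% means no effect; nearly all actives have a fitted effect of over 65% in size; a mitochondrial uncoupler was the plate control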
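Compound titrations (5 concentrations, 24 h) on a stable cell line; DMSO and CCCP controls. Endpoint: fixed-cell PINK1 immunofluorescence with mitochondrial, cell and nuclear markers, scanned by microplate cytometer.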
CtBP-E1A blk: inhibitors of CtBP/E1A interaction; AlphaScreen GST-E1A/His-CtBP binding, 1536-well; stronger effect = lower value; control for the full effect not named in the record; hit rate 0.49% among 340,000; activity change, % (concentration not given with the values); AID 651724; in the data active means activity change below about -65%; inconclusive means about -30% to -65%; inactive means above about -30%; further: on the % scale 0 is the no-effect control and ±100 the full control effect
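Protein mix (5X: 125 nM each GST-E1A, His-CtBP) was incubated with pinned compound 2 h at 37 deg C in dark, in 50 mM Tris pH 8.0 buffer with 300 mM NaCl. Glutathione donor and nickel acceptor beads followed; AlphaScreen signal read after 1 h.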
TRPML1 ag: activates the human TRPML1 channel | Q9GZU1 | TRPML1-expressing cells, Ca2+ dye fluorescence, FDSS; host cell line not named in the record; reference of the full effect not given here | activation, % (concentration not given with the values) | hit rate 0.12% among 410,000; in the data active = activation above about 50%; inconclusive = about 30% to 50%; inactive = below about 30%; further: 0% is about no effect; the text of the record puts the active cut at 80%
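Cells: TRPML1-DL, 1X Tet inducer, ~16 h at 37 degrees C/5% CO2. Dye: ABD Ca8 no-wash + quencher, 45-90 min RT. Read: 10 s baseline, compound add, 110 s agonist phase; 54-4 EC80 (4uM final), 110 s antagonist phase.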
D2 ag: human D2 receptor agonism in beta-arrestin assay; P14416; DiscoveRx PathHunter D2 beta-arrestin, luminescence, 90 min; 100% = 57 uM dopamine signal; activation, % (concentration not given with the values); hit rate 0.084% among 360,000; in the data active = activation above about 40%; inconclusive = about 15% to 40%; inactive = below about 15%; further: compound concentration not given in the record; the text of the record calls up to 30% inactive
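DiscoveRx PathHunter D2 beta-arrestin cells (2,100/well) attached overnight, then compound-stimulated 90 min at 37 C in HBSS/10 mM HEPES/0.1% Tween-20 buffer; beta-galactosidase complementation read by luminescence after 1 h at ambient temperature. Dopamine 57 uM final (EC100) as control.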
TRPML1 inh: blocks the human TRPML1 channel. hit rate 0.02% among 390,000. TRPML1-inducible cells, Ca2+ dye fluorescence, FDSS; stronger effect = lower value; inhibition of EC80 agonist-evoked calcium signal. Q9GZU1. activity change, negative = inhibition, % (no concentration beside the values); in the data active means activity change below about -50%; inconclusive means about -30% to -50%; inactive means above about -30%;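 further: stimulus is agonist 54-4 at its EC80 concentration; on the % scale 0 is the no-effect control and ±100 the full control effect; compound concentration not given in the record; the text of the record puts the active cut at -80%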
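TRPML1-DL cells, Tet-induced overnight (~16 h, 37 °C) at 1,500 cells/well, were loaded with Ca8 no-wash dye plus quencher for 45-90 min at room temperature. Compounds were pinned during FDSS kinetic reading; agonist 54-4 at EC80 (4 uM final) then added.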
Active calls of the source: *; u = inconclusive; x = not tested or not shown; [ ] = another dose, or the depositor's remark. Random draw from the library. About 1% of those tested had a hit in this group.

SMILES	Six1-Eya2 blk	PINK1 modulator	CtBP-E1A blk	TRPML1 ag	D2 ag	TRPML1 inh
NC(=S)N=Nc1c(O)[nH]c2c(Br)cc(Br)cc12	-6	-0.2%	0	-0.3	-6.1	-12
COc1cc2[nH]c(=O)n(CCC(=O)N3CCN(c4cccc(C)c4C)CC3)c(=O)c2cc1OC	4	2.5%	-1	-0.3	-0.4	-3
Cc1ccccc1NNC(N)=S	2	0.7%	2	0.4	1.4	13
CSCCC1NC2(C(=O)Nc3c(Cl)cccc32)[C@@H]2C(=O)N(C3CCCC3)C(=O)[C@H]12 (some centres not stated)	-4	1.2%	2	2.0	7.9	1
Cc1c([N+](=O)[O-])cc(S(=O)(=O)Nc2ccc(-c3ccc(N4CCCC4)nn3)cc2)cc1[N+](=O)[O-]	u	-1.6%	-4	1.0	3.5	7
COCCNC(=O)C1(S(=O)(=O)c2ccccc2)CC=CC1	2	0.7%	3	0.1	-7.5	34
CC(NC(=O)COC(=O)c1ccc(OCC2CCCO2)cc1)c1ccccc1Cl (configuration not stated)	3	0.4%	-5	0.6	2.2	26
N#Cc1ccc(C(c2nnnn2CCc2ccccc2)N2CCCCCC2)cc1 (configuration not stated)	0	3.2%[38.3 µM]	3	0.6	-2.6	12
Cc1ccc(CSc2nn3c(=O)c(C)nnc3s2)cc1	3	1.7%	0	0.6	-0.5	21
COc1ccc2nc3oc(C(=O)Nc4ccc(OC)c(OC)c4)cc3cc2c1	-10	u	-3	0.4	-2.1	9
Nc1ncnc2c1ncn2[C@@H]1O[C@H](CNCC(O)CO)[C@@H](O)[C@H]1O (some centres not stated)	6	0.0%	8	-0.3	-2.8	1
O=C1CCCN1c1ccc(C(=O)N(Cc2nnc(-c3ccccc3Cl)o2)C2CC2)cc1	0	1.2%	0	-0.9	1.5	-8
CN(C)S(=O)(=O)c1ccc(S(=O)(=O)NCc2cccs2)cc1	6	-0.8%	6	0.4	-4.0	10
CCCCCCn1c(=O)c(Cc2ccccc2)c(O)c2ccccc21	5	-2.1%	-2	0.4	-7.1	-2
COC(=O)c1cccc(Cn2c(Cl)c(/C=N/NC(=O)c3ccccc3Cl)sc2=O)c1	-30	1.1%[38.3 µM]	-29	0.3	0.9	5
COc1ccc(COC(=O)C2=C(C)NC(=O)NC2c2ccc(F)cc2)cc1 (configuration not stated)	-13	4.0%	-2	-0.8	u	27
CCCOc1ccc(/C=N/Nc2ccccn2)cc1OC	-5	5.5%	-4	1.4	-5.6	-7
Cc1noc(C)c1COc1cccc(C(=O)Oc2ccc3c(c2)OCO3)c1	7	x	8	3.0	-0.7	13
COC(=O)N/N=C/c1c(C)cc(C)cc1C	0	0.4%	-1	1.5	-1.8	-5
CCCC(CCC(=O)Nc1nccs1)C(=O)O (configuration not stated)	7	0.3%	1	-0.2	-1.5	5
CC1CN(c2oc(Cc3cccc4ccccc34)nc2C#N)CC(C)O1 (configuration not stated)	u	-0.4%	-11	1.3	1.0	6
CC(=O)c1cn(CC(=O)Nc2ccc(C)cc2)c2ccccc12	24	-1.0%	2	-0.7	-3.8	8
Cc1ccc(NC(=O)COC(=O)c2cccc3c(=O)c(C)c(-c4ccccc4)oc23)cc1	3	4.9%	3	-0.6	0.9	-3
COc1ccc(S(=O)(=O)NCC(c2ccc(N(C)C)cc2)N2CCCC2)cc1 (configuration not stated)	x	0.1%	x	-0.6	x	-12
O=C(CCN1CCc2ccccc2CC1)c1ccc2c(c1)OCCO2	-2	-1.4%	-3	9.4	-1.4	-4

Next part
SMILES	Six1-Eya2 blk	PINK1 modulator	CtBP-E1A blk	TRPML1 ag	D2 ag	TRPML1 inh
Cc1ccccc1CN(C)CC(=O)Nc1ccccc1Oc1ccccc1	23	9.3%	-1	2.5	-8.7	3
O=C(O)CSc1nnc(C2COc3ccccc3O2)n1-c1ccccc1 (configuration not stated)	0	8.1%[38.3 µM]	2	-0.7	0.1	0
CC(=O)c1cccc(N=C2NC(=O)C(CO)(CO)S2)c1	1	5.3%	-3	0.6	-2.8	64
O=C(CN1C(=O)c2ccccc2C1=O)OCC(=O)c1ccc(F)cc1	5	1.8%	2	0.4	1.2	-2
COc1ccc(OC)c(/C=C/C(=O)OCC(=O)NCc2cccs2)c1	6	-0.1%	-1	1.8	-5.6	-5
Cc1cc(C)c2nc(-c3ccccn3)cc(C(=O)NCc3cc(C)n(C)n3)c2c1	5	9.6%	-1	-0.2	-3.7	7
Cc1ccc(NCC(=O)c2ccccc2)cc1Cl	2	7.1%[38.3 µM]	2	-0.8	-13	5
COc1ccc(NC(=O)c2ccc(COc3ccccc3)o2)c(OC)c1	u	3.8%	-7	2.4	-7.8	u
O=C(COC(=O)Cc1c[nH]c2ccccc12)Nc1c(Cl)cccc1C(F)(F)F	2	-0.6%	3	0.8	-1.3	12
CCCc1cc(=O)[nH]c(SCC(=O)N(CCOC)c2c(N)n(Cc3ccccc3)c(=O)[nH]c2=O)n1	2	1.9%	1	-0.4	1.6	4
Cc1ccc(-n2c(=O)cc(N3CCN(c4ccccc4Cl)CC3)[nH]c2=O)cc1	x	-0.3%	x	1.2	x	29
Cc1ncc([N+](=O)[O-])n1CCOC(=O)C12CC3CC(CC(C3)C1)C2	13	1.7%	-9	0.2	-6.3	4
O=S1(=O)CC(N2CCN(CC3CC3)CC2)CN1C1CCCCC1 (configuration not stated)	-1	4.1%	-1	-0.5	-4.8	x
CN(CCOc1ccccc1)C(=O)C1CCC(=O)N(CCN2CCOCC2)C1 (configuration not stated)	2	-1.0%	-5	0.9	-1.5	-9
COc1ccc(-n2ncc(C(=O)N3CCN(c4cc(C)ccc4C)CC3)c2C2CCN(C(=O)OC(C)(C)C)CC2)cc1	x	-1.6%	x	1.0	x	14
O=C(Nc1cc2c3c(c1)CC(=O)N3CCC2)c1ccc(Cl)cc1	-18	11%	-3	0.3	-1.5	0
Cc1ccc(C)c(N2C(=O)CS/C2=N\NC(=O)c2ccccc2Cl)c1	2	4.7%[38.3 µM]	7	0.5	0.2	-3
Cc1cc(C)cc(NC(=O)CCN2CC(C)OC(C)C2)c1 (configuration not stated)	8	8.4%[38.3 µM]	3	-0.4	-2.2	3
Nc1nonc1-c1nc2ccccc2n1Cc1ccc(F)cc1	1	9.4%	11	1.5	-2.0	50
CCOC(=O)C1=CCN(S(=O)(=O)c2ccccc2F)C1c1ccccc1 (configuration not stated)	8	-0.1%	2	-0.8	2.6	x
CN1C(=O)C(C)(C)c2cc(S(=O)(=O)N3CCN(c4ccccc4F)CC3)ccc21	8	0.8%	-1	0.5	-2.8	-3
c1ccc(-c2cncnc2)nc1	14	-0.8%	-17	-0.1	2.4	-8
COC(=O)c1ccc(NC(=O)CN2C(=O)CCc3cc(S(=O)(=O)N4CCCCC4)ccc32)cc1	x	3.0%	x	-0.2	x	4
O=C(O)CCc1ccc(-c2ccc(Br)cc2)n1-c1ccc(O)cc1	-15	3.1%	-8	-0.2	1.4	4
CCCCC(CC)COC(=O)CCCCC(=O)OCC(CC)CCCC (configuration not stated)	0	-0.5%	10	-0.1	-0.6	23

Arranged by count of non-hydrogen atoms (high to low): 7 of the compounds above.
SMILES	Six1-Eya2 blk	PINK1 modulator	CtBP-E1A blk	TRPML1 ag	D2 ag	TRPML1 inh
COc1ccc(-n2ncc(C(=O)N3CCN(c4cc(C)ccc4C)CC3)c2C2CCN(C(=O)OC(C)(C)C)CC2)cc1	x	-1.6%	x	1.0	x	14
CCCc1cc(=O)[nH]c(SCC(=O)N(CCOC)c2c(N)n(Cc3ccccc3)c(=O)[nH]c2=O)n1	2	1.9%	1	-0.4	1.6	4
Cc1cc(C)c2nc(-c3ccccn3)cc(C(=O)NCc3cc(C)n(C)n3)c2c1	5	9.6%	-1	-0.2	-3.7	7
CN(CCOc1ccccc1)C(=O)C1CCC(=O)N(CCN2CCOCC2)C1 (configuration not stated)	2	-1.0%	-5	0.9	-1.5	-9
CCCCC(CC)COC(=O)CCCCC(=O)OCC(CC)CCCC (configuration not stated)	0	-0.5%	10	-0.1	-0.6	23
COc1ccc(OC)c(/C=C/C(=O)OCC(=O)NCc2cccs2)c1	6	-0.1%	-1	1.8	-5.6	-5
O=C(O)CCc1ccc(-c2ccc(Br)cc2)n1-c1ccc(O)cc1	-15	3.1%	-8	-0.2	1.4	4

Next part
SMILES	Six1-Eya2 blk	PINK1 modulator	CtBP-E1A blk	TRPML1 ag	D2 ag	TRPML1 inh
COc1ccc([C@H]2CC(=O)C[C@@H](CCn3cc(Cc4ccccc4)nn3)O2)cc1	-6	1.0%	1	-0.7	x	x
Cc1cc(NC(=O)CSc2nc(-c3ccccc3Cl)nc3c2c(=O)n(C)c(=O)n3C)no1	-5	6.4%	4	0.1	0.5	1
CCCCN1C(=O)C(CC(=O)NCc2ccco2)CC(C(=O)N(CC)CC)=C1C (configuration not stated)	11	1.4%	1	-0.6	-7.1	4
O=C(CSc1ncc2c(n1)-c1ccccc1N(Cc1ccc(Cl)cc1)S2(=O)=O)c1ccccc1	x	1.7%	x	0.7	x	71
C[C@@H]1CC=C[C@@H]2[C@H]1C(=O)N(Cc1ccccc1)[C@H]2c1ccccc1Br	-1	5.9%	-11	2.0	0.3	77
COc1cccc(CNC(=O)C2CCCCN2S(=O)(=O)c2ccc(F)cc2)c1 (configuration not stated)	x	3.8%	x	-1.2	x	-2
CN(Cc1ccccn1)C(=O)c1cc(COc2ccc(F)c(F)c2)on1	1	0.5%	-8	0.3	0.3	0
O=C(NC1CCCC1)C(c1ccccc1F)N(C(=O)c1ccco1)C1CCCC1 (configuration not stated)	0	0.2%	4	0.0	-5.3	1
CCc1ccc(NC(=O)CSc2nc3c(c(=O)n(C)c(=O)n3C)n2C)cc1	10	2.8%	1	0.7	0.2	-10
CN(C)c1ccc(/C=C(\Cl)c2nc3ccccc3s2)cc1	9	18%	0	5.4	-5.9	-15
COc1ccccc1N1CCN(C(=O)C2CCN(S(=O)(=O)c3ccc(C)cc3)CC2)CC1	-4	0.4%	x	2.0	4.7	-2
COc1ccc(/C=C/C(=O)c2c(O)c(OC)c3occc3c2OC)cc1	-2	-0.8%	x	0.0	-2.3	1
CN1OC[C@@H]2CN[C@H](c3ccc(-c4cccc(F)c4)cc3)C[C@@H]21	0	0.3%	0	0.9	-11	10
NS(=O)(=O)c1ccc(CNC(=O)c2ccccn2)cc1	-3	-0.3%	5	x	-2.7	x
CCn1c(C(=O)N2CCC(C(=O)NCCCSC3CCCCC3)CC2)cc2sccc21	-2	-1.3%	-13	1.4	11	-3

High-throughput results: PubChem BioAssay, National Center for Advancing Translational Sciences (NCATS)
